# VACV mCherry inh: inhibitors of vaccinia virus infection (mCherry reporter signal); AID 720579; Potency, µM (titrated, usually from 36.5 µM), for inactives: at the top dose activity change, negative = inhibition, usual class: inhibitors; 310,000 compounds, 0.63% hits; Vaccinia virus mCherry reporter infection, fluorescence; about a quarter of the inactives have no number; active = well fitted inhibition curve with a large enough effect; inconclusive = small, poorly fitted or top-dose-only effect; inactive = no such curve, though single readings can be large or run the other way; tested in A549 cells; further: nearly all actives have a fitted effect of over 35% in size; inactives centre near -10
# Vaccinia Venus: inhibitors of vaccinia virus (Venus reporter); Vaccinia virus Venus reporter expression, fluorescence; 330,000 compounds, 0.46% hits; Potency, µM (titrated, usually from 36.5 µM), for the others: at the highest dose activity change, negative = inhibition, hits mostly inhibitors; active means well fitted inhibition curve with a large enough effect; inconclusive means small, poorly fitted or top-dose-only effect; inactive means no such curve, though single readings can be large or run the other way; tested in A549 cells; further: nearly all actives have a fitted effect of over 30% in size; inactives centre near -10
# An asterisk follows results filed as active; i = inactive; ? = inconclusive; . = no result given; & = joins results of further samples; [ ] = another dose, or the depositor's remark. On the % scale 0 is the no-effect control and ±100 the full control effect; potency means the concentration at half of the fitted maximal effect. Outcome played no part in choosing rows, and some 0.82% of all compounds hit somewhere here.
canonical_smiles	VACV mCherry inh	Vaccinia Venus
Cc1occc1C(=O)N/N=C/c1cccnc1	-6.7%	-1.5%
CC(C)(C)OC(=O)C[C@@H]1C/C=C\C[C@@H](CC(=O)N(CCO)Cc2ccccc2)C(=O)N2CCC[C@@H]2COC1=O	i	-5.0%
CCOC(=O)N1CCN(Cc2nc3cc([N+](=O)[O-])ccc3n2C(C)C)CC1	-13.2%	-10.1%
CCOc1ccc(C(=O)NNC(=O)CCNC(=O)c2ccco2)cc1OC	-17.2%	-9.2%
Fc1cccc(Cc2c(-c3cccc(Br)c3)nc3ccc(Br)cn23)c1	i	-9.5%
CCSc1nnc(NC(=O)C2CC(=O)N(Cc3ccccc3)C2)s1 (stereo not given)	-18.8%	-9.8%
OC[C@@H]1CN(CCN2CCOCC2)C[C@H](n2cnc3c(NC4CC4)ncnc32)O1	-8.1%	-2.2%
CSc1nc(/C=C2\C=Nc3ccccc32)c(O)n1C	?	-24.2%
CC(C)CNS(=O)(=O)c1ccc(CCC(=O)NCC2CCCO2)cc1 (stereo not given)	i	-7.2%
CCN(CC)CCN1C(=O)c2ccccc2NC1c1ccc(Br)cc1 (stereo not given)	-13.3%	-13.5%
COc1cc2c(c(OC)c1OC)-c1ccc(SC)c(=O)cc1C(NC(=O)C(F)(F)F)CC2 (stereo not given)	-18.6%	?
O=C(O)C1(S(=O)(=O)CCC(F)=C(F)F)CC1	1.1%	1.8%
Cc1ccc(CN(Cc2ccccn2)C(=O)Nc2ccc(C)c(C)c2)cc1	i	0.7%
CC1(C)CC(=O)C=C(c2ccc(-c3cnn(Cc4ccccc4)c3)cc2)C1=O	-6.5%	-15.1%
COc1cccc2c1OCC1COc3c(c(=O)n(C)c(=O)n3C)C21 (stereo not given)	.	-10.3%
CCCc1nc(SCC(=O)Nc2ccc(N3CCOCC3)cc2)c2ccccc2n1	-10.7%	-18.5%
COc1ccc(C(=O)Oc2c(C)occc2=O)cc1OC	.	-13.1%
NC(N)=NCCCS(=O)(=O)Nc1ccc(Nc2c3ccccc3nc3cc([N+](=O)[O-])ccc23)cc1	-1.2%	-6.1%
COc1ccc(-c2nc(CS(=O)CC(=O)NCc3ccc(Cl)cc3)c(C)o2)cc1OC (stereo not given)	i	-22.3%
CCN(CC)S(=O)(=O)c1cccc(NC(=O)c2cc3ccccc3o2)c1	-12.8%	-14.2%
COc1ccccc1CNC(=O)C1CCCN(c2nc3ccccc3n3cccc23)C1 (stereo not given)	-15.4%	-17.1%
CCOC(=O)CCNC(C)C1COc2ccccc2O1 (stereo not given)	-11.4%	-12.8%
CCc1nc(C)cn1S(=O)(=O)c1cc(Cl)c(OC)cc1Cl	-16.9%	-12.9%
CCCCNS(=O)(=O)/C=C/c1ccccc1	-13.0%	-13.1%
Cc1nnc(SCC(=O)N(C)c2ccccc2)n1-n1cccc1	-4.3%	-1.8%
CCOc1ccc(/C(O)=C2/C(=O)C(=O)N(c3ccccn3)C2c2ccc(C)cc2)c(C)c1 (stereo not given)	-2.4%	-8.4%
Cc1sc2ncn(CC(=O)NCCCOC(C)C)c(=O)c2c1S(=O)(=O)N1CCN(c2ncccn2)CC1	-1.6%	-9.8%
C#CCOCCOCCOCCNc1nc(N2CCN(C(=O)[C@H]([C@@H](C)CC)n3cc(CCCCN)nn3)CC2)nc(N2CCN(C(=O)[C@H](CCCCN)n3cc(CCC(=O)O)nn3)CC2)n1	i	0.5%
O=C(COC(=O)c1cccc(S(=O)(=O)N2CCCCC2)c1)NCc1cccc(Cl)c1	-14.3%	-13.4%
CCCSC1=C(C#N)C(c2ccc(OC)cc2)C2=C(CC(C)(C)CC2=O)N1 (stereo not given)	5.0%	5.9%

# Looked up by compound from the list above:
canonical_smiles	VACV mCherry inh	Vaccinia Venus
CCc1nc(C)cn1S(=O)(=O)c1cc(Cl)c(OC)cc1Cl	-16.9%	-12.9%
CCCCNS(=O)(=O)/C=C/c1ccccc1	-13.0%	-13.1%
COc1ccccc1CNC(=O)C1CCCN(c2nc3ccccc3n3cccc23)C1 (stereo not given)	-15.4%	-17.1%

# The results go on:
canonical_smiles	VACV mCherry inh	Vaccinia Venus
CN(C(=O)c1cccc(NC(=O)Cc2ccc(NC(=O)C3CCN(C(=O)C4CC4)CC3)cc2)c1)C1CCCCC1	-9.2%	-19.0%
CCc1cccc(NC(=O)Cn2c(=O)n(CCCCCC(=O)NCc3ccc(F)cc3)c(=O)c3sccc32)c1	-8.4%	-17.1%
C=CCNc1nnc(SCC(=O)N2CCC(C(N)=O)CC2)s1	-9.3%	-0.3%
CCOc1ccc(-n2cc(C(=O)Nc3cccc(C)n3)c3cc(OC)c(OC)cc3c2=O)cc1	-10.9%	-3.8%
CCCCn1c(N)c(-c2nc3ccccc3o2)c2c([N+](=O)[O-])nn(CC)c(=O)c21	i	-16.9%
COc1ccc(Cl)cc1C(=O)NNC(=O)COC(=O)CC(NC(C)=O)c1ccccc1 (stereo not given)	i	-11.4%
CC(=O)c1c(C)oc2c1cc(NS(=O)(=O)c1ccc(Br)cc1)c1ccccc12	-22.7%	-14.0%
COc1ccc(S(=O)(=O)Nc2cc(C(C)C)c(O)cc2C)cc1	-29.1%	-24.8%
Nc1nc(CCOc2ccc(F)cc2)cs1	-14.1%	-10.3%
CCCCn1c(=O)c(C(=O)NCc2ccncc2)c(O)c2ccccc21	-8.3%[1.46 µM]	-9.2%
CSc1nnc(C(C)(C)C)c(=O)n1/N=C/c1c(O)ccc2ccccc12	-3.8%	-16.2%
O=C(CN1C(=O)CCS(=O)(=O)c2ccccc21)Nc1ccc(F)cc1	i	-15.1%
COc1cc(OC)c(N(C)S(=O)(=O)c2cccc(C(=O)NC(C)C3CC4CCC3C4)c2)cc1Cl (stereo not given)	-0.3%	-6.9%
CN1C2CCC1CC(OC(=O)c1ccc([N+](=O)[O-])cc1)C2 (stereo not given)	i	7.8%
COc1ccc(C)cc1N(C(=O)Cn1nnc(-c2ccc(C)o2)n1)C(C(=O)NC1CCCC1)c1ccncc1 (stereo not given)	1.4%	-0.2%
CC(C)C[C@H](N)C(=O)N[C@H](C(=O)N[C@H](C(=O)N[C@@H](Cc1ccc(O)cc1)C(=O)N1CCC[C@H]1C(=O)N[C@@H](Cc1c[nH]c2ccccc12)C(=O)N[C@H](C(=O)N[C@@H](CCC(N)=O)C(=O)N[C@@H](CCCN=C(N)N)C(=O)O)[C@@H](C)O)C(C)C)C(C)C	i[3.33 µM]	-9.4%[3.33 µM]
COc1cc(=O)n2c(c1C(=O)NCc1nonc1C)CCN(C(=O)c1cccc(C)c1C)CC2	i	0.0%
Cc1ccc(/C=N/NC(=O)c2nnn(-c3nonc3N)c2CSc2ccc(Cl)cc2)cc1	?	?
N#CC1(Nc2ccc(C(=O)O)cc2)CCCC1	4.0%	-7.7%
CCN(CC(=O)Nc1ccc(NC(C)=O)cc1)C(=O)CSCC(=O)Nc1ccc(C)cc1	i	-8.1%
O=C(NC(=O)c1ccccc1)Nc1ccccc1	-0.1%	-5.2%
O=C(COC(=O)CNC(=O)C1CCCCC1)Nc1ccccc1	-7.3%	3.8%
Cc1ccnc(NC(=O)CS(=O)(=O)c2ccccc2)c1	-5.2%	6.1%
COC(=O)CCCn1cc(CN2CC(N3CCN(Cc4ccccc4F)CC3)CS2(=O)=O)nn1 (stereo not given)	16.9%	5.2%
CCc1cccc2c(C(=O)COC(=O)c3nn(C)c(=O)c4ccccc34)c[nH]c12	-9.2%	-23.7%
CCNC(=O)C1(C)CCCN(Cc2cccc3c2OCCO3)C1 (stereo not given)	36.8%[activator]	2.9%
COc1ccc(C(=O)NC(C)c2nnc(SCC(=O)NC3CCCCC3)n2C)cc1 (stereo not given)	i	-13.8%
Cc1ccc(CNC(=O)CS(=O)(=O)CC(=O)O)cc1	-16.2%	-1.3%
Cc1ccccc1SCC(=O)OCC(=O)N(C)c1c(N)n(Cc2ccccc2)c(=O)[nH]c1=O	i	-16.8%
CC1CCC(NC(=S)NCCN(C)C)CC1 (stereo not given)	i	-6.1%
CCCn1c(C)cc(C(=O)CN2C(=O)NC3(CCCCCC3)C2=O)c1C	-16.1%	?
CSc1ccc(CNCCCN(C)C)cc1	-1.6%	-14.3%
CCOC(=O)C1=CCC2C(=O)N(CC)C(=O)C12 (stereo not given)	41.6%[activator]	3.2%
O=C1CC(c2ccc3c(c2)OCO3)c2cc3c(cc2N1)OCCO3 (stereo not given)	.	-16.3%
Cc1ccc(C2c3[nH]c4ccccc4c3CCN2C(=O)CCC2CCCC2)cc1 (stereo not given)	-7.8%	-0.4%
O=C(O)CNC(=O)c1ccc(NC(=O)/C(=C/c2cccc([N+](=O)[O-])c2)NC(=O)c2ccco2)cc1	i	-2.1%
Cc1cc(NC(=O)CCC(=O)N(Cc2ccccc2)C(C(=O)NC2CCCC2)c2ccco2)no1 (stereo not given)	1.3%	-5.1%
CCOc1ccc(NC(=O)CN(C)C(=O)c2ccc(COc3ccccc3)o2)cc1OCC	-2.9%	-16.8%
Cc1cc2c(cc1S(=O)(=O)Nc1cccc(C#N)c1)OCC(=O)N2	-20.6%	-12.9%
CC1=C(C(=O)OC2CCCCC2)C(c2cccs2)n2c(nc3ccccc32)N1 (stereo not given)	-7.9%	1.4%
Cc1ccc(C)c(N2CCN(c3ccncc3N)CC2)c1	?	?
CCN(CCn1cccn1)Cc1nc(-c2ccccc2)no1	2.2%	0.8%
O=C(CC1SCCNC1=O)Nc1ccc(Cl)cc1 (stereo not given)	-8.4%	1.4%
CCOc1ccc(C(=O)N(C)C2CCS(=O)(=O)C2)cc1 (stereo not given)	i	-3.2%
C[C@H]1CN([C@@H](C)CO)S(=O)(=O)c2ccc(Br)cc2O[C@H]1CN(C)C(=O)CCN1CCCCC1	-16.7%	-29.8%
CCN(CC)CCN(C)C(c1cc2ccccc2o1)c1nnnn1C(C)(C)C (stereo not given)	-8.0%	6.4%
CC1CN(S(=O)(=O)c2cccc(C(=O)Nc3ccc(S(=O)(=O)NC4=NCCCCC4)cc3)c2)CC(C)O1 (stereo not given)	-4.4%	-26.8%
CC1CC(=O)N(CCc2ccccc2)C(=O)C1	-9.1%	-14.8%
O=[N+]([O-])c1ccc(Cl)cc1Sc1ccccn1	-13.6%	-8.7%
CCN(CC)c1nc(=S)nc(NC(C)(C)C)[nH]1	-25.5%	-22.9%

# An excerpt of these results, field by field.
O=[N+]([O-])c1ccc(Cl)cc1Sc1ccccn1
- VACV mCherry inh: -13.6%
- Vaccinia Venus: -8.7%

CCN(CC)c1nc(=S)nc(NC(C)(C)C)[nH]1
- VACV mCherry inh: -25.5%
- Vaccinia Venus: -22.9%

Cc1ccc(C)c(N2CCN(c3ccncc3N)CC2)c1
- VACV mCherry inh: ?
- Vaccinia Venus: ?

# Going on with the list:
canonical_smiles	VACV mCherry inh	Vaccinia Venus
CC(=O)C[C@H](O)CC(=O)[C@@H]1OC(=O)[C@H](C)C/C=C\Cc2ccccc21	i	-4.0%
c1ccc(COc2cccc(CNCc3cccs3)c2)cc1	-22.0%	-10.6%
CCOc1ccc2nc(N3CCC(C(=O)N4CCN(C(=O)c5ccco5)CC4)CC3)sc2c1	-18.9%	-13.8%
COc1ccccc1Nc1nc(C)cc(C)n1	-2.0%	-14.4%
O=C(NC1CCCC1)C(c1ccc(F)cc1)N(C(=O)c1csnn1)c1ccccc1F (stereo not given)	i	-0.6%
CNS(=O)(=O)c1cccc(C(=O)OCC(=O)Nc2ccc(-c3nc4ccc(C)cc4s3)cc2)c1	-2.0%	-8.6%
COC(=O)c1c(C(=O)OC)c(C)n(Cc2ccco2)c1C	i	-4.1%
CCOc1ccc(-n2c(=O)c3c(C)c(C(=O)N(C)C)sc3n(CC(=O)Nc3c(C)cc(C)cc3C)c2=O)cc1	-15.0%	-14.7%
Cc1nn(C)c(C)c1S(=O)(=O)N(CC(=O)NCc1cccs1)c1ccc(C(C)C)cc1	i	-6.7%
Cc1cc(C)cc(OCC(=O)OCC(=O)N2CC(=O)Nc3ccccc32)c1	-6.9%	-4.5%
COc1ccc(-n2c(C)cc(-c3csc(N)n3)c2C)cc1	-3.3%	9.6%
Cc1nc(SCC(=O)N(C)C2CCCCC2)[nH]c(=O)c1Cc1ccccc1	i	-13.6%
CC1CCN(C(=O)COC(=O)c2ccccc2C(=O)c2ccccc2)CC1	i	-2.5%
CCc1cccc2c(C(=O)COC(=O)c3c(C)noc3C)c[nH]c12	-22.7%	-19.2%
CCOC(=O)CSc1nc2ccccc2n2c(C)nnc12	0.5%	-10.7%&0.6%
Cc1cccc(OCC(=O)Nc2cc(-c3ccccc3F)nn2-c2ccccc2)c1	?	?
O=[N+]([O-])c1ccc(CN2CC(N3CC=CC3)CS2(=O)=O)cc1 (stereo not given)	56.7%[activator]	-1.3%
CCNc1ccccc(C(=O)/C=C/c2ccc3c(c2)OCO3)c1=O	.	0.2%
Cc1ccc2c(c1)COc1c3ccc(C(=O)NCC4CC4)cc3nn1-2	-7.6%	?
COC(=O)c1ccc(C2OCC(C)(C)CO2)cc1	-4.2%	-9.7%
